NOMO-1 viab: NOMO-1 AML cell viability reduction, primary screen, STK33 inhibitor project, CellTiter-Glo luminescence; NOMO-1 AML viability, 72 h; inhibition, % (no concentration beside the values); 37,000 compounds, 7.5% hits;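 active = most replicates above 80%; inconclusive = exactly half above 80%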;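 note: wells of about 30 µL received 25 nL stock; 0% = median of vehicle wells and 100% = reference inhibitor level; the first replicate is given; inactives centre near 10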
* marks the source's active call; other numbers are inactive results; u = inconclusive. An excerpt (hit frequency here may not be typical).

no.	SMILES	NOMO-1 viab
1	O=S(=O)(NCc1ccccn1)c1cc(Cl)c(Cl)cc1Cl	8.8
2	Cc1noc(C)c1NC(=O)N(C)C[C@@H]1Oc2ccc(NC(=O)Nc3ccc(F)cc3)cc2C(=O)N([C@H](C)CO)C[C@@H]1C	-2.5
3	Cc1c(CCC(=O)O)c(=O)oc2c(C)c(OCc3c(F)cccc3Cl)ccc12	-7.1
4	C[C@H](CO)N1C[C@H](C)[C@@H](CN(C)Cc2ccc(-c3ccccc3)cc2)Oc2c(NC(=O)c3ccc(-c4nccs4)cc3)cccc2C1=O	86.8*
5	C[C@H](CO)N1C[C@H](C)[C@H](CN(C)Cc2ccc(Oc3ccccc3)cc2)Oc2c(NC(=O)Nc3ccc4c(c3)OCO4)cccc2C1=O	116.3*
6	CS(=O)(=O)N(CC(=O)Nc1cccnc1)c1cccc(Br)c1	-10.5
7	C[C@@H]1CCCCO[C@@H](CN(C)C(=O)C2CCCCC2)[C@@H](C)CN([C@H](C)CO)C(=O)c2cc(NS(=O)(=O)c3cccs3)ccc2O1	52.2
8	C[C@H]1CN([C@@H](C)CO)C(=O)c2cccc(NC(=O)Nc3cccc4ccccc34)c2O[C@@H]1CN(C)C(=O)Nc1ccccc1	45.7
9	Cn1cnnc1SCC(=O)N1c2ccccc2Sc2ccc(C(F)(F)F)cc21	7.1
10	C[C@@H]1CN([C@@H](C)CO)C(=O)c2cc(NC(=O)Cc3ccccc3)ccc2O[C@H]1CN(C)C(=O)Nc1ccc(F)cc1	10.5
11	O=C(CSc1nnc(-c2ccncc2)n1-c1ccc(F)cc1)c1ccccc1	15.4
12	C[C@H]1CN([C@@H](C)CO)C(=O)Cc2cc(NC(=O)Nc3ccccc3)ccc2O[C@@H]1CN(C)S(=O)(=O)c1cccs1	2.9
13	O=S(=O)(c1ccc2ccccc2c1)N1CCCCC1	16.6
14	CCN(CC)C(=O)C1Sc2nnc(-c3ccccc3)n2NC1c1ccc(C)cc1 (stereo unspecified)	3.6
15	C=C1[C@H]2CC[C@]3(O)[C@@](CC[C@@H]4[C@](C)(C(=O)O)CCC[C@]43C)(C2)[C@H]1OC(=O)/C(C)=C\C	11.3
16	C=CCN1C(=O)C(O)(CC(=O)c2ccc(OC)c([N+](=O)[O-])c2)c2ccccc21 (stereo unspecified)	118.9*
17	Cc1cccc(NC(=O)CSc2nnc3c4ccccc4nc(-c4ccccc4)n23)c1	10.7
18	Cc1ccc(NC(=O)C(C)NS(=O)(=O)c2ccc(F)cc2)c(C)c1 (stereo unspecified)	-23.7
19	O=C(O)CSc1n[nH]c(-c2cccs2)n1	13.4
20	O=C(O)CN(c1ccccc1)S(=O)(=O)c1ccc(Cl)c(Cl)c1	-6.0
21	Cc1ccc(N(C(C)C(=O)Nc2ccccc2-c2ccccc2)S(C)(=O)=O)cc1 (stereo unspecified)	-10.8
22	C[C@@H]1CN([C@H](C)CO)C(=O)c2cc(NC(=O)CCCCCC(=O)Nc3ccccc3N)ccc2O[C@H]1CN(C)Cc1ccc(-c2ccccc2)cc1	68.7
23	Cc1noc(C)c1NC(=O)Nc1ccc2c(c1)C(=O)N([C@@H](C)CO)C[C@@H](C)[C@@H](CN(C)S(=O)(=O)c1ccc(Cl)cc1)O2	26.0
24	CCOC(=O)Cc1c(C)[nH]c(C(=O)OCC)c1CC(=O)OCC	12.3
25	Cc1ccc(S(=O)(=O)N(C)C[C@@H]2Oc3ccc(NC(=O)c4ccncc4)cc3C(=O)N([C@@H](C)CO)C[C@@H]2C)cc1	-1.0
26	CN1CCN(CCCNc2c([N+](=O)[O-])c(=O)oc3ccccc23)CC1	28.8
27	Cc1cc(NC(=O)CN(c2cc(Cl)ccc2C)S(C)(=O)=O)ccc1Br	67.5
28	C[C@H](CO)N1C[C@H](C)[C@H](CN(C)Cc2ccccc2)Oc2c(NC(=O)c3ccncc3)cccc2C1=O	17.9
29	COc1ccc(NC(=O)N(C)C[C@@H]2Oc3ccc(NC(=O)Nc4ccc(C(F)(F)F)cc4)cc3CC(=O)N([C@@H](C)CO)C[C@@H]2C)cc1	27.1
30	C[C@@H]1CN([C@@H](C)CO)C(=O)Cc2cc(NC(=O)Nc3ccc(C(F)(F)F)cc3)ccc2O[C@@H]1CN(C)Cc1ccc(-c2ccccc2)cc1	23.9
31	C[C@@H]1CCCCO[C@@H](CN(C)Cc2ccc(C(F)(F)F)cc2)[C@@H](C)CN([C@H](C)CO)C(=O)c2cc(NS(=O)(=O)c3ccccc3)ccc2O1	u
32	CC1(C)c2ccccc2N2CC(=O)NC21/C=C/c1ccc(N2CCOCC2)cc1 (stereo unspecified)	58.6
33	CC1(C)ONC(=O)N(c2ccccc2)C1=O	9.0
34	C[C@H]1CN([C@@H](C)CO)C(=O)c2cccc(NC(=O)C3CCCCC3)c2O[C@H]1CN(C)Cc1ccc2c(c1)OCO2	4.0
35	C[C@H]1CN([C@@H](C)CO)C(=O)c2cc(NC(=O)CCC(F)(F)F)ccc2O[C@@H]1CN(C)C(=O)Nc1ccccc1	8.1
36	C[C@@H]1CN([C@H](C)CO)C(=O)c2cc(NC(=O)Nc3ccc4c(c3)OCO4)ccc2O[C@@H]1CN(C)Cc1ccncc1	19.4
37	COc1ccc(S(=O)(=O)N(C)C[C@H]2Oc3ccc(NC(=O)Nc4ccc5c(c4)OCO5)cc3CC(=O)N([C@@H](C)CO)C[C@H]2C)cc1	46.2
38	Cn1c(SCc2ccccc2C#N)nnc1-c1ccc(NC(=O)c2ccc(F)cc2)cc1	35.8
39	C[C@H]1CN([C@@H](C)CO)C(=O)Cc2cc(NC(=O)NC3CCCCC3)ccc2O[C@H]1CN(C)C(=O)Nc1ccc2c(c1)OCO2	-8.0
40	C[C@H]1CN([C@@H](C)CO)C(=O)c2cccc(NS(=O)(=O)c3ccccc3)c2O[C@H]1CN(C)Cc1ccc(-c2ccccc2)cc1	46.0
41	Cc1ccc(NC(=O)Cn2cc(C(=O)c3cccs3)c3ccccc32)cc1Cl	35.0
42	CC(C)Cc1ccc(/C=C/C(=O)N2CCN(C/C=C/c3ccccc3)CC2)cc1	42.3
43	O=C1c2ccccc2C(=O)C1C1c2ccccc2Oc2ccccc21	23.5
44	CCC1(C)Cc2nc3nc(SCC(=O)c4ccc(Br)cc4)n(-c4ccccc4)c(=O)c3cc2CO1 (stereo unspecified)	60.8
45	C[C@H](CO)N1C[C@H](C)[C@H](CN(C)C(=O)Nc2ccc(F)cc2)Oc2ccc(NC(=O)Cc3cn(C)c4ccccc34)cc2CC1=O	11.5
46	COc1cc2ccc(=O)oc2cc1OC	12.4
47	Cc1noc(C)c1NC(=O)N(C)C[C@@H]1Oc2ccc(NC(=O)NC3CCCCC3)cc2CC(=O)N([C@H](C)CO)C[C@@H]1C	2.6
48	CN(c1cccc(NC(=O)CN2C(=O)c3cccc4cccc2c34)c1)S(C)(=O)=O	-2.5
49	Cc1noc(C)c1NC(=O)N(C)C[C@@H]1Oc2c(NC(=O)C3CCCCC3)cccc2C(=O)N([C@H](C)CO)C[C@H]1C	-24.7
50	O=c1oc2ccccc2cc1-c1csc(Cc2nc(-c3ccc(Br)cc3)cs2)n1	52.8
51	COC(=O)Cc1c(C)nc2nc(-c3ccco3)[nH]n2c1=O	40.9
52	C[C@@H]1CN([C@H](C)CO)C(=O)c2cc(NC(=O)Nc3ccc(F)cc3)ccc2O[C@@H]1CN(C)S(=O)(=O)c1ccc(F)cc1	60.8
53	Cc1ccc(C(O)C(=O)c2ccccc2)o1 (stereo unspecified)	6.5
54	CC(C)NC(=O)N(C)C[C@H]1Oc2ccc(NC(=O)Nc3ccccc3)cc2C(=O)N([C@H](C)CO)C[C@H]1C	11.0
55	COc1ccc(S(=O)(=O)N(C)C[C@H]2Oc3ccc(NC(=O)Nc4cccc5ccccc45)cc3C(=O)N([C@H](C)CO)C[C@@H]2C)cc1	-7.1
56	COc1ccccc1OCCn1c(S(=O)(=O)O)nc2ccccc21	3.9

Some of these compounds in order of SMILES length, descending.
no.	SMILES	NOMO-1 viab
55	COc1ccc(S(=O)(=O)N(C)C[C@H]2Oc3ccc(NC(=O)Nc4cccc5ccccc45)cc3C(=O)N([C@H](C)CO)C[C@@H]2C)cc1	-7.1
52	C[C@@H]1CN([C@H](C)CO)C(=O)c2cc(NC(=O)Nc3ccc(F)cc3)ccc2O[C@@H]1CN(C)S(=O)(=O)c1ccc(F)cc1	60.8
47	Cc1noc(C)c1NC(=O)N(C)C[C@@H]1Oc2ccc(NC(=O)NC3CCCCC3)cc2CC(=O)N([C@H](C)CO)C[C@@H]1C	2.6
49	Cc1noc(C)c1NC(=O)N(C)C[C@@H]1Oc2c(NC(=O)C3CCCCC3)cccc2C(=O)N([C@H](C)CO)C[C@H]1C	-24.7
48	CN(c1cccc(NC(=O)CN2C(=O)c3cccc4cccc2c34)c1)S(C)(=O)=O	-2.5
50	O=c1oc2ccccc2cc1-c1csc(Cc2nc(-c3ccc(Br)cc3)cs2)n1	52.8
51	COC(=O)Cc1c(C)nc2nc(-c3ccco3)[nH]n2c1=O	40.9

The list goes on:
no.	SMILES	NOMO-1 viab
57	CCn1c(SCC(=O)Nc2cccc(Br)c2)nnc1-c1ccc(Cl)cc1Cl	28.7
58	Cc1noc(C)c1NC(=O)N(C)C[C@@H]1Oc2ccc(NS(=O)(=O)c3ccccc3)cc2CC(=O)N([C@@H](C)CO)C[C@@H]1C	28.0
59	CC(C)NC(=O)Nc1ccc2c(c1)CC(=O)N([C@H](C)CO)C[C@@H](C)[C@@H](CN(C)S(=O)(=O)c1cccs1)O2	23.5
60	CCCOc1ccc(Oc2nc(NC(C)(C)C)nc(N3CCOCC3)n2)nn1	31.8
61	C[C@H]1CN([C@@H](C)CO)C(=O)c2cc(NS(=O)(=O)c3cccs3)ccc2O[C@@H]1CN(C)CC1CCCCC1	-1.0
62	C[C@@H]1CN([C@@H](C)CO)C(=O)Cc2cc(NC(=O)Cc3cn(C)c4ccccc34)ccc2O[C@@H]1CN(C)Cc1ccc(Oc2ccccc2)cc1	114.9*
63	Cn1c(SCCC(=O)O)nnc1-c1ccncc1	6.2
64	C[C@@H]1CCCCO[C@@H](CN(C)S(=O)(=O)c2cccs2)[C@@H](C)CN([C@H](C)CO)C(=O)c2cc(NC(=O)CCC(F)(F)F)ccc2O1	22.9
65	C[C@@H]1CN([C@@H](C)CO)C(=O)c2cc(NC(=O)Cc3cn(C)c4ccccc34)ccc2O[C@H]1CN(C)S(=O)(=O)c1cn(C)cn1	20.4
66	COc1ccccc1Nc1nc(N)nc(CN2CCOCC2)n1	-4.6
67	C[C@H]1CN([C@@H](C)CO)C(=O)c2cc(NC(=O)CCCN(C)C)ccc2O[C@@H]1CN(C)S(=O)(=O)c1ccc(Cl)cc1	17.7
68	CCc1cccc(CC)c1NC(=O)Cn1cnc2ccccc2c1=O	5.9
69	C[C@@H]1CN([C@@H](C)CO)C(=O)Cc2cc(NS(=O)(=O)c3cn(C)cn3)ccc2O[C@@H]1CN(C)S(=O)(=O)c1cccs1	17.9
70	C[C@@H]1CN([C@H](C)CO)C(=O)c2cc(N(C)C)ccc2O[C@H]1CN(C)Cc1ccc(C(F)(F)F)cc1	47.6
71	C[C@@H]1CN([C@H](C)CO)C(=O)c2cccc(NC(=O)c3nc4ccccc4s3)c2O[C@@H]1CN(C)Cc1ccc2c(c1)OCO2	15.4
72	COc1ccc(CN(C)C[C@H]2OCCCC[C@@H](C)Oc3ccc(NC(=O)Nc4ccc5c(c4)OCO5)cc3C(=O)N([C@H](C)CO)C[C@@H]2C)cc1	19.2
73	COc1ccc(CN(C)C[C@H]2Oc3ccc(NS(=O)(=O)c4ccc(F)cc4)cc3C(=O)N([C@@H](C)CO)C[C@H]2C)cc1	3.7
74	Cc1coc(C)c1C(=O)CC1(O)C(=O)N(CCc2ccccc2)c2ccccc21 (stereo unspecified)	22.7
75	O=C(CSc1nnc(-c2cccc([N+](=O)[O-])c2)n1-c1ccccc1)Nc1ccc(F)cc1	62.2
76	COC(=O)c1cc(OC)c(OC)cc1NC(=O)C(C)Oc1ccc(OC)cc1 (stereo unspecified)	18.9
77	Cc1ccc(NC(=O)CCCn2cc([N+](=O)[O-])cn2)cc1Cl	1.2
78	C[C@H]1CN([C@@H](C)CO)C(=O)Cc2cc(NC(=O)c3ccncc3)ccc2O[C@H]1CN(C)CC1CCCCC1	-17.2
79	C[C@@H]1CN([C@H](C)CO)C(=O)c2cccc(NS(=O)(=O)c3cccs3)c2O[C@H]1CN(C)CC1CCCCC1	11.2
80	Cc1ccccc1-c1nnc(SCC(=O)Nc2ccc(C(C)C)cc2)n1C	35.2
81	CC(C)C(NS(=O)(=O)c1ccc(Oc2ccccc2Cl)cc1)C(=O)O (stereo unspecified)	-1.5
82	CC(C)NC(=O)Nc1ccc2c(c1)C(=O)N([C@H](C)CO)C[C@H](C)[C@H](CN(C)C(=O)CCCN(C)C)OCCCC[C@@H](C)O2	24.8
83	Cc1ccc(S(=O)(=O)N(C)C[C@H]2Oc3ccc(NS(=O)(=O)c4cccs4)cc3C(=O)N([C@@H](C)CO)C[C@@H]2C)cc1	14.8
84	CCOC(=O)c1c(NC(=O)CSc2nc(C)ccc2C#N)sc2c1CCC2	u
85	Cc1noc(C)c1S(=O)(=O)N(C)C[C@@H]1Oc2ccc(NC(=O)Nc3ccc4c(c3)OCO4)cc2CC(=O)N([C@@H](C)CO)C[C@@H]1C	4.4
86	Cc1cc(C)cc(NC(=O)c2ccc(NS(=O)(=O)c3cccc4cccnc34)cc2)c1	19.0
87	OC(c1ccccc1)c1nc2ccccc2n1CCOc1ccccc1 (stereo unspecified)	46.2
88	COc1ccc(NC(=O)N(C)C[C@@H]2Oc3ccc(NS(=O)(=O)c4ccc(F)cc4)cc3C(=O)N([C@@H](C)CO)C[C@@H]2C)cc1	11.4
89	C[C@]12CCC3c4ccc(OC(=O)c5ccccc5)cc4CCC3C1CCC2=O (stereo partly specified)	20.0
90	COc1ccc(S(=O)(=O)Nc2ccc3c(c2)C(=O)N([C@H](C)CO)C[C@H](C)[C@@H](CN(C)C(=O)Nc2ccc(F)cc2)O3)cc1	13.4
91	CS(=O)(=O)N(CC(=O)Nc1cccnc1)c1cccc(F)c1	8.6
92	C[C@@H]1CN([C@H](C)CO)C(=O)Cc2cc(NC(=O)Nc3ccc4c(c3)OCO4)ccc2O[C@H]1CN(C)C(=O)NC1CCCCC1	2.4

Screening data deposited in PubChem by Broad Institute.
